CtBP-E1A inh: qHTS Assay for Inhibitors of the CtBP/E1A Interaction. AlphaScreen GST-E1A/His-CtBP binding, 1536-well; hits give low values; control for the full effect not named in the record. activity change, % (test concentration not listed). 340,000 compounds, 0.49% hits. AID 651724, 2012; in the data active means activity change below about -65%; inconclusive means about -30% to -65%; inactive means above about -30%; note: % is set by controls: 0 for no effect and ±100 for the full control effect
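In 5 uL wells, 23 nL compound meets equimolar GST-E1A and His-CtBP (5X stock 125 nM each) for 2 h, 37 °C. Beads (5X, 50 ug/mL) then 1 h, 37 °C, dark.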
gsp antag: qHTS for Antagonists of gsp, the Etiologic Mutation Responsible for Fibrous Dysplasia/McCune-Albright Syndrome: qHTS; gsp-mutant cells, cAMP HTRF, 30 min; control for the full effect not named in the record; Potency, µM (doses to about 76.9 µM), for the others: at the highest dose activity change, negative = inhibition, actives largely listed as inhibitors; 340,000 compounds, 0.4% hits; active = falling curve of any shape with a large fitted effect; inconclusive = falling curve, mostly with a smaller effect; inactive = flat or rising curve; cell line not stated here;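 note: intracellular cAMP measured with PDE inhibitor Ro 20-1724 present during compound exposure; potency is the fitted concentration of half-maximal effect; % is set by controls: 0 for no effect and ±100 for the full control effect; nearly all actives have a fitted effect of over 65% in size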
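HTRF cAMP read-out (cAMP-d2 plus anti-cAMP antibody-K in lysis buffer, 30 min RT). Before lysis, cells are exposed to compounds with […] for 30 min at 37C in DPBS containing Ca/Mg, BSA and Tween 20.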
D2 potentiator: Beta-Arrestin HTS for Positive Allosteric Modulators of the Human D2 Dopamine Receptor: Potentiators; DiscoveRx D2 beta-arrestin cells, luminescence, 90 min; 100% = 57 uM dopamine signal; D(2) dopamine receptor (Homo sapiens), P14416; 360,000 compounds, 0.23% hits; potentiation, % (no concentration beside the values); active = potentiation of 50% or more; inconclusive = 30% to 50%; inactive = 30% or less;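 note: compound concentration not given in the record; tested on top of an EC20 dose of dopamine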
Target sequence (P14416 whole entry, looked up): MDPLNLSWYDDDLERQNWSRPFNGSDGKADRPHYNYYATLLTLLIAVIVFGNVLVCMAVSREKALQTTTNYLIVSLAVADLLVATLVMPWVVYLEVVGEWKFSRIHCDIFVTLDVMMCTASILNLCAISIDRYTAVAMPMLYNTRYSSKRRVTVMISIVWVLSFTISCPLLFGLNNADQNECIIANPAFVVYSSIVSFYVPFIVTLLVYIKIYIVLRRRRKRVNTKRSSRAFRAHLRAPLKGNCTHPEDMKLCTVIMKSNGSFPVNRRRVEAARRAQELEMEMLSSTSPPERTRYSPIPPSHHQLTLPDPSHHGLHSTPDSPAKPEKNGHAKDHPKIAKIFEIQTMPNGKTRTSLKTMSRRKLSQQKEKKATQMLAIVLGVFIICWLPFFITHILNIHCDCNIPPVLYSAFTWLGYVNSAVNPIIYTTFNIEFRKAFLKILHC
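PathHunter D2 cells, attached overnight at 37 deg C, received compound in DMSO plus dopamine at EC20 (50 nM final) for 90 min at 37 deg C. Beta-arrestin recruitment was read as luminescence after 1 h with detection reagent at ambient temperature.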
gsp ag: qHTS for Agonist of gsp, the Etiologic Mutation Responsible for Fibrous Dysplasia/McCune-Albright Syndrome: qHTS. Potency, µM (series often up to 76.9 µM), without a hit: at the highest dose activation (cAMP increase), hits mostly activators. gsp mutant cells, cAMP HTRF, 30 min; control for the full effect not named in the record. 340,000 compounds, 0.13% hits; active = well fitted activation curve with a large enough effect; inconclusive = small, poorly fitted or top-dose-only effect, or another doubt; inactive = no such curve, though single readings can be large or run the other way; cell line not stated here;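 note: phosphodiesterase inhibitor Ro 20-1724 added with compounds to block cAMP breakdown; potency is the fitted concentration of half-maximal effect; nearly all actives have a fitted effect of over 60% in size; about a fifth of the inactives were tested at one dose only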
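Cells in DMEM/10% FBS with G418 were pretreated with compounds in DMSO plus […] (300 uM stock) for 30 min at 37C. cAMP was measured by HTRF (cAMP-d2 plus anti-cAMP antibody-K) after 30 min at room temperature.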
D2 agonist: Beta-Arrestin HTS for Positive Allosteric Modulators of the Human D2 Dopamine Receptor: Agonists; DiscoveRx PathHunter D2 beta-arrestin, luminescence, 90 min; 100% = 57 uM dopamine signal; activation, % (concentration not given with the values); D(2) dopamine receptor (Homo sapiens), P14416; 360,000 compounds, 0.084% hits; in the data active = activation above about 40%; inconclusive = about 15% to 40%; inactive = below about 15%; note: the text of the record calls up to 30% inactive
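DiscoveRx PathHunter D2 beta-arrestin cells (2,100/well) attached overnight, then compound-stimulated 90 min at 37 C in HBSS/10 mM HEPES/0.1% Tween-20 buffer; beta-galactosidase complementation read by luminescence after 1 h at ambient temperature. Dopamine 57 uM final (EC100) as control.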
Six1-Eya2 inh: qHTS Assay for Inhibitors of the Six1/Eya2 Interaction; Homeobox protein SIX1 (Homo sapiens) + Protein phosphatase EYA2 (Homo sapiens), …; AlphaScreen GST-Six1/His-Eya2 binding, biochemical; hits give low values; control for the full effect not named in the record; activity change, % (concentration not given with the values); 360,000 compounds, 0.56% hits; AID 651725, 2012; in the data active = activity change below about -65%; inconclusive = about -30% to -65%; inactive = above about -30%; note: % is set by controls: 0 for no effect and ±100 for the full control effect
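Homogeneous AlphaScreen proximity assay pairing GST-Six1 with His-tagged Eya2 (added as 5X mix: 250 nM and 500 nM) in 50 mM Tris pH 8.0, 300 mM NaCl, 1 mM TCEP. Glutathione donor and nickel acceptor beads; 1 h, 37 °C, dark.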
An asterisk follows results filed as active; ? = inconclusive; / = not tested or not shown; [ ] = dose if it differs, or a comment.

SMILES	CtBP-E1A inh	gsp antag	D2 potentiator	gsp ag	D2 agonist	Six1-Eya2 inh
COC(=O)CSc1nc(N)c2c3c(sc2n1)C(c1ccccc1)SC(c1ccccc1)C3 (stereo not drawn)	2	-13%	1	2%	-2.0	-10
CCOC(=O)c1nnn(-c2nonc2N)c1-c1ccc(OCC)cc1	-1	-2%	-3	-82%	-0.6	-3
Cc1ccc2nc(-c3cccnc3)cc(C(=O)Nc3ccc(F)cc3C)c2c1	8	-18%	-2	-6%[15.4 µM]	-1.6	-4
Cc1cccc(NC(=O)C2CCN(S(=O)(=O)c3ccc4ccccc4c3)CC2)n1	-7	-22%	-11	-5%[15.4 µM]	0.6	-11
CCC(=O)Nc1ccc(N2CCCCC2)cc1	0	-3%	-10	-35%[inhibitor]	-0.9	0
CC(Oc1cc2oc(=O)c3c(c2cc1Cl)CCC3)C(=O)NC1CC(C)(C)NC(C)(C)C1 (stereo not drawn)	1	4%	-7	12%	1.0	-1
CC(C)NC(=O)c1ccccc1S(=O)c1ccccc1C#N (stereo not drawn)	8	6%	4	-34%[inhibitor]	-2.3	13
CCN(C(=O)COC(=O)c1cccc(S(=O)(=O)N(CC)CC)c1)C1CCS(=O)(=O)C1 (stereo not drawn)	0	9%	-9	20%	-0.6	23
CC1(C)CC2CC(C)(CN2S(=O)(=O)c2cccc(C(=O)OCC(N)=O)c2)C1 (stereo not drawn)	10	-11%	-12	12%	-6.1	-4
COc1ccc(N2CCN(C(=O)CSc3ncnc4c3cnn4-c3ccccc3C)CC2)cc1	0	-4%	-4	22%	-2.1	19
CCN(CC)CCOC(=O)c1ccc(NC(=O)c2cccc(C)c2[N+](=O)[O-])cc1	-3	10%	-7	57%	-5.4	0
Cc1cccc(C)c1N=C1C(=O)Nc2ccccc21	8	-9%	-10	-31%[inhibitor]	-3.4	6
Cc1ccc(NS(=O)(=O)c2cc(NC(=O)C(C)Oc3ccccc3)ccc2C)c(C)c1 (stereo not drawn)	-12	-34%	-20	-8%	-3.7	-8
COc1ccc(C2CC(=O)Nc3n[nH]c(-c4ccccc4)c32)cc1OC (stereo not drawn)	-10	-4%	-7	1%[15.4 µM]	-3.8	-8
COc1cccc(C2C3=C(N=c4s/c(=C\c5ccc(O)cc5)c(=O)n42)c2ccccc2CC3)c1OC (stereo not drawn)	-2	5%	-8	-31%[inhibitor]	-1.3	1
CC(=O)Nc1ccc(C(C)=NNC(=O)C2CCCC2)cc1	8	/	-4	/	-2.6	9
Cc1ccccc1NC(=O)c1ccc(CN2CCc3ccccc3C2)cc1	-3	-5%	-15	22%	-1.1	2
Cc1occc1C(=O)NC(C)C12CC3CC(CC(C3)C1)C2 (stereo not drawn)	-2	-9%	-7	1%	-1.8	-3
CN(C)CCCNc1nc(N)c([N+](=O)[O-])c(NC2CCCCC2)n1	-6	11%	-9	?	0.6	-3
COC(=O)c1cccc(COC(=O)c2ccc(N(C)C)cc2)c1	4	-14%	-8	?	-1.3	-1
O=C(CSc1nnc(Cc2cc(=O)[nH]c(=O)[nH]2)n1-c1ccc(Cl)cc1)NC1CCCC1	0	-4%	-2	-14%	-3.7	2
CS(=O)(=O)N(CC(=O)N1CCN(c2cccc(Cl)c2)CC1)c1ccccc1	3	-11%	-2	-17%	-2.3	1
COc1cccc(OC)c1OCCCOc1ccc(C)cc1Br	15	-13%	-4	-1%	-4.2	31
NC(=S)c1cc2cc(Br)ccc2oc1=O	8	5%	-18	-8%	-2.0	-6
O=C(Nc1ccc(N2CCOCC2)cc1)c1ccc(-c2ccccc2[N+](=O)[O-])o1	?	-25%	-11	-8%[15.4 µM]	3.5	?
O=S1(=O)C=C[C@H](COCc2ccccc2)N1	6	/	-4	/	-6.4	7
O=C1C(Cl)=C(NCCN2CCCCC2)C(=O)c2ccccc21	-28	-24%	-5	-35%	3.6	?
Cc1cc(/C=N\NC(=O)COc2cccc3cccnc23)c(C)n1-c1ccccc1	-18	6%	2	-2%	1.1	-12
Cc1cc(/C=C(\C#N)C(N)=O)c(C)n1-c1ccc(N2CCOCC2)c([N+](=O)[O-])c1	-15	?	16	-9%[15.4 µM]	4.3	?
O=C(CSc1ccc(Cl)cc1)NC1CCCc2ccccc21 (stereo not drawn)	13	-1%	-11	10%	-1.5	7
CC(C)c1ccc(OCC(=O)NNC(=S)NC(=O)c2ccco2)c(Br)c1	-2	-9%	-13	-47%[inhibitor]	-2.6	-16
O=C(c1c(F)cccc1F)N1CCC(n2nnc3cc(C(F)(F)F)ccc32)CC1	10	3%	4	-8%[15.4 µM]	-2.6	-4
COc1ccccc1C(=O)NNC1=NS(=O)(=O)c2ccccc21	1	8%	-3	-11%[15.4 µM]	-0.5	1
CCc1ccc(C(=O)Nc2ccc(S(=O)(=O)Nc3nc(C)cc(C)n3)cc2)o1	-4	-10%	-7	26%	-1.8	7
COc1ccc(S(=O)(=O)N(CC(=O)NCc2ccncc2)Cc2ccccc2)cc1	1	/	4	5%[15.4 µM]	0.0	9
O=S(=O)(c1ccc2c(c1)OCCO2)N1CCN(Cc2ccccc2)CC1	-6	-8%	-13	-16%	-1.6	-9
O=C(Oc1cccc([N+](=O)[O-])c1)c1ccc2c(=O)n3c(nc2c1)CCC3	-10	?	2	?	-0.7	?
O=C(c1cccc(F)c1)N1CCc2ccccc21	7	-7%	-5	0%	-2.5	6
CC1=C(C)CS(=O)N(c2ccc(S(N)(=O)=O)cc2)C1 (stereo not drawn)	8	15%	-14	-39%[inhibitor]	-2.4	2
O=C(Nc1cc2c(cc1Cl)OCCCO2)c1ccc(F)cc1	6	-13%	-7	1%	1.4	9

18 consecutive compounds from above, quoted:
SMILES	CtBP-E1A inh	gsp antag	D2 potentiator	gsp ag	D2 agonist	Six1-Eya2 inh
COC(=O)c1cccc(COC(=O)c2ccc(N(C)C)cc2)c1	4	-14%	-8	?	-1.3	-1
O=C(CSc1nnc(Cc2cc(=O)[nH]c(=O)[nH]2)n1-c1ccc(Cl)cc1)NC1CCCC1	0	-4%	-2	-14%	-3.7	2
CS(=O)(=O)N(CC(=O)N1CCN(c2cccc(Cl)c2)CC1)c1ccccc1	3	-11%	-2	-17%	-2.3	1
COc1cccc(OC)c1OCCCOc1ccc(C)cc1Br	15	-13%	-4	-1%	-4.2	31
NC(=S)c1cc2cc(Br)ccc2oc1=O	8	5%	-18	-8%	-2.0	-6
O=C(Nc1ccc(N2CCOCC2)cc1)c1ccc(-c2ccccc2[N+](=O)[O-])o1	?	-25%	-11	-8%[15.4 µM]	3.5	?
O=S1(=O)C=C[C@H](COCc2ccccc2)N1	6	/	-4	/	-6.4	7
O=C1C(Cl)=C(NCCN2CCCCC2)C(=O)c2ccccc21	-28	-24%	-5	-35%	3.6	?
Cc1cc(/C=N\NC(=O)COc2cccc3cccnc23)c(C)n1-c1ccccc1	-18	6%	2	-2%	1.1	-12
Cc1cc(/C=C(\C#N)C(N)=O)c(C)n1-c1ccc(N2CCOCC2)c([N+](=O)[O-])c1	-15	?	16	-9%[15.4 µM]	4.3	?
O=C(CSc1ccc(Cl)cc1)NC1CCCc2ccccc21 (stereo not drawn)	13	-1%	-11	10%	-1.5	7
CC(C)c1ccc(OCC(=O)NNC(=S)NC(=O)c2ccco2)c(Br)c1	-2	-9%	-13	-47%[inhibitor]	-2.6	-16
O=C(c1c(F)cccc1F)N1CCC(n2nnc3cc(C(F)(F)F)ccc32)CC1	10	3%	4	-8%[15.4 µM]	-2.6	-4
COc1ccccc1C(=O)NNC1=NS(=O)(=O)c2ccccc21	1	8%	-3	-11%[15.4 µM]	-0.5	1
CCc1ccc(C(=O)Nc2ccc(S(=O)(=O)Nc3nc(C)cc(C)n3)cc2)o1	-4	-10%	-7	26%	-1.8	7
COc1ccc(S(=O)(=O)N(CC(=O)NCc2ccncc2)Cc2ccccc2)cc1	1	/	4	5%[15.4 µM]	0.0	9
O=S(=O)(c1ccc2c(c1)OCCO2)N1CCN(Cc2ccccc2)CC1	-6	-8%	-13	-16%	-1.6	-9
O=C(Oc1cccc([N+](=O)[O-])c1)c1ccc2c(=O)n3c(nc2c1)CCC3	-10	?	2	?	-0.7	?

Carrying on:
SMILES	CtBP-E1A inh	gsp antag	D2 potentiator	gsp ag	D2 agonist	Six1-Eya2 inh
O=C(CC[C@H]1O[C@@H](n2ccc(=O)[nH]c2=O)[C@H](O)[C@@H]1O)N[C@@H](Cc1ccccc1)C(=O)NCC1CCCCC1	6	/	0	/	-2.6	4
CCC(=O)Nc1ccccc1C(=O)OCC(=O)c1ccc2ccccc2c1	18	-17%	-4	5%	0.7	8
COc1ccc(NC(=O)Cn2ccc3c(OC)cccc3c2=O)cc1	3	3%	-9	-15%[15.4 µM]	2.2	7
Cc1ccc(N2CCN(C(=O)c3cc(COc4c(C)cccc4C)on3)CC2)c(C)c1	15	-9%	4	-29%	-1.8	3
Cc1cc(C)c(C#N)c(Oc2ccccc2Br)n1	17	4%	12	-7%	1.5	4
COCCNC(=O)c1cc2c(c(-c3cccc(C#Cc4ccc(OC)c(OC)c4)c3)n1)[C@H](CCO)N(S(=O)C(C)(C)C)C2 (stereo partly drawn)	-19	/	9	/	8.5	-18
COc1ccc(CN(C#N)c2nc(SC)nc(N(C)C)n2)cc1	-4	-34%	19	-5%	3.4	-19
COc1ccc(-c2cc(=O)oc3cc(OCC(=O)Nc4ccccn4)ccc23)cc1	1	-1%	1	14%	-6.9	0
Cc1cccc(C(=O)OCC(=O)c2c(C)[nH]c3ccccc23)c1O	6	-35%	0	14%	3.4	4
O=C(Nc1nc2ccc(S(=O)(=O)N3CCCC3)cc2s1)c1cccs1	-3	-16%	-28	27%	-1.6	-11
COc1ccc(NC(=O)Cn2c(C)cc(=O)c3cccc(OC)c32)cc1	9	7%	-6	-23%	-2.3	-2
O=C(NCc1cccc(Br)c1)C1CC(c2ccccc2C(F)(F)F)=NO1 (stereo not drawn)	5	8%	-8	/	-3.0	8
